From PubChem BioAssay
UCH37 inh = inhibitors of human UCH37 deubiquitinase, primary screen, biochemical, Ub-AMC cleavage, fluorescence; Ubiquitin carboxyl-terminal hydrolase isozyme L5 (Homo sapiens), Q9Y5K5; purified proteasome/UCH37; inhibition, % (test concentration not listed); 0.33% of 330,000 active;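 active = mean of two replicates above 20%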;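 note: 0% = compound-free wells with enzyme and 100% = wells lacking proteasome; stock transfer was 100 nL into about 20 µL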
Target sequence (Q9Y5K5 whole entry, looked up): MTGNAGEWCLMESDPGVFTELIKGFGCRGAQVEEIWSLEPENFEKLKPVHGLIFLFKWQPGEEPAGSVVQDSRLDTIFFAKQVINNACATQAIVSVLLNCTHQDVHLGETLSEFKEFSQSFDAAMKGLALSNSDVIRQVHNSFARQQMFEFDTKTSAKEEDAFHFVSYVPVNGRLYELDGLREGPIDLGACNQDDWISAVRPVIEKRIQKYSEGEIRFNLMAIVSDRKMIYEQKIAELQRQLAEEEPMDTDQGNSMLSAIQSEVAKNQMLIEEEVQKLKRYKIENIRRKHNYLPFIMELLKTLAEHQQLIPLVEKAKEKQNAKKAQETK
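Assay system: Proteasome-bound UCH37. Buffer or medium: pH 7.4 Tris-HCl (50 mM) with ovalbumin, ATP-MgCl2, DTT. Incubation: 30 min preincubation with enzyme, 25 min cleavage at room temperature. Measured by: fluorescence, ex 355 nm, em 460 nm. Read-out basis: percent inhibition. Control set: wells without proteasome as full block, compound-free enzyme plus substrate as uninhibited.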
Beta cell apopt = inhibitors of cytokine-induced beta cell apoptosis, primary screen, luminescence; 0.8% of 300,000 active; INS-1E cytokine-induced death, ATP luminescence, 48 h; percent of positive-control rescue, neutral wells zero; protection from apoptosis, % (test concentration not listed);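 active = all replicates at 75% or more, or half of them and the mean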;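 note: 0% = cytokine-treated negative control wells and 100% = positive control rescue; higher means more ATP so stronger rescue from cytokine killing; wells of about 40 µL received 100 nL stock; the first replicate is given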
Ecoli rRNA inh = reduced GFP signal of wild-type E. coli, primary screen, bacterial rRNA inhibitor project, GFP/RFP fluorescence, OD600, single point; E. coli WT GFP vs humanized-ribosome RFP mutants, 24 h; hits give low values; DMSO median 0, no signal -100; GFP signal change (wild-type ribosome), % (test concentration not listed); 1.6% of 350,000 active;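 active = significant combined selectivity score with lowered wild-type GFP, culture density cut under 30%, mutant RFP and density less affected; inactive = any of these conditions unmet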; note: one replicate is shown; some compounds called inactive have numbers as strong as hits
Ecoli growth = E. coli growth inhibition, primary screen, OD600; Escherichia coli growth, 23 h; hits give low values; OD600 absorbance (concentration not given with the values); 0.21% of 330,000 active;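 active = OD600 absorbance below the run mean of sample wells minus 3.6 SD, in any replicate, cut at about 0.56 in these data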;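 note: stock transfer was 300 nL into about 60 µL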
FGF22 binding = binders of human FGF22 protein, primary screen, FGF22 synaptogenesis inhibitor project, biophysical, thermal shift, single point | Fibroblast growth factor 22 (Homo sapiens), Q9HCT0 | recombinant FGF22 thermal shift, SYPRO orange fluorescence; percent of sucrose octasulfate shift, DMSO zero | calls only at 9.99 µM | 1.5% of 340,000 active | AID 651658, 2012;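 active = melting point raised past a set limit in the mean and every replicate; three in four hits are not shown here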
Target sequence (Q9HCT0 whole entry, looked up): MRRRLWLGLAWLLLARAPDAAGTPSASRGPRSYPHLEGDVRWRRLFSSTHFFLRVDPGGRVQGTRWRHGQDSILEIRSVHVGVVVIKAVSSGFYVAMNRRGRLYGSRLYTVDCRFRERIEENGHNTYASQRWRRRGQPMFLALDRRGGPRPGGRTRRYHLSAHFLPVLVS
A1 inh = caspase 3/7 activation in MEF A1-2A-BIM cells, primary screen, A1 inhibitor project, cell-based, luminescence, HTS. Caspase-Glo 3/7 luminescence, 3 h; percent of clofoctol response, vehicle zero. caspase activation, % (no concentration beside the values). 0.066% of 330,000 active. AID 2462, 2010;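 active = over half of replicate activation scores above 10%, or exactly half above 10 with the replicate mean above 10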;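 note: wells of about 30 µL received 50 nL stock; many hits fall short of the cut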
T cruzi repl = inhibitors of intracellular T. cruzi growth, primary screen, luminescence, NIH3T3 host cells; inhibition, % (test concentration not listed); T. cruzi beta-gal in NIH3T3, 90 h; 1.4% of 300,000 active;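 active = mean inhibition across valid replicates above about 55%, limit read from the data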;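 note: signal also drops with host cell toxicity which is not excluded here; 0% = plate median of DMSO wells and 100% = zero luminescence signal; higher percent means less beta-gal luminescence so fewer parasites; stock transfer was 50 nL into about 50 µL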
MLL AF4-AF9 inh = inhibitors of AF4 peptide binding to AF9, primary screen, biochemical, AlphaScreen, biotin-AF4 peptide, FLAG-AF9, single point | AID 651704, 2012 | 0.47% of 350,000 active | inhibition, % at 10 µM;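 active = every replicate reaching a set inhibition limit, whatever the replicate mean, cut at about 25% in these data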;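 note: 0% = plate neutral control median and 100% = total signal loss; the record names both 10 and 1 µM as test concentration; the first replicate is given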
Target sequence (P42568 whole entry, looked up): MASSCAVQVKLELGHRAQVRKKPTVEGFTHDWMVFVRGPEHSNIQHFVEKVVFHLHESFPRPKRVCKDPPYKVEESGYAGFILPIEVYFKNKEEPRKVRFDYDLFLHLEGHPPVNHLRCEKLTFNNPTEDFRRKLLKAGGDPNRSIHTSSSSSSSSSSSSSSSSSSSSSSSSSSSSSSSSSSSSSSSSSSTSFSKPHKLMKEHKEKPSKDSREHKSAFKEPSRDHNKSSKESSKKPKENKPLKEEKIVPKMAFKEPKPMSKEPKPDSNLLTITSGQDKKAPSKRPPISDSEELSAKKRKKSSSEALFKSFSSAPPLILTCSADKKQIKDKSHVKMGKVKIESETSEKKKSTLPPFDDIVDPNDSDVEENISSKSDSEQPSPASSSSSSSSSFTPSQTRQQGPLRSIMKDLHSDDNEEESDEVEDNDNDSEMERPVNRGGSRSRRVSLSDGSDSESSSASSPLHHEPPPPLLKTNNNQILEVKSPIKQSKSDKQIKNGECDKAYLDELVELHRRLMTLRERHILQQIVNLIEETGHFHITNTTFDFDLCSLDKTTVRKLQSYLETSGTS
Ecoli rRNA inh OD600 = further read-out of Ecoli rRNA inh, marked with its call; OD600 change, %; measured here: OD600 growth;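 optical density of the mix in the first replicate; 0 = DMSO median and -100 = no signal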
Ecoli rRNA inh RFP = recorded beside Ecoli rRNA inh, whose call it bears; RFP signal change, %; measured here: RFP humanized mutant strains;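 first replicate; 0 = DMSO median and -100 = no signal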
Numbers without * were called inactive; i = inactive; x = not tested or not shown. Not all compounds are listed; the hit share may differ from the screen's.

SMILES	UCH37 inh	Beta cell apopt	Ecoli rRNA inh	Ecoli rRNA inh OD600	Ecoli rRNA inh RFP	Ecoli growth	FGF22 binding	A1 inh	T cruzi repl	MLL AF4-AF9 inh
COc1cc(C2SCC(=O)N2Cc2ccccc2)cc(OC)c1OC (stereo not given)	3.1	-5	1	-6	-0.3	0.66	i	-0.1	-9	2.9
Cc1ccc(-c2nc3ncccn3c2NC2CCCC2)o1	-3.8	3	x	x	x	0.71	x	1.5	-5	x
Cc1nn(Cc2ccc(Cl)cc2)c2sc(C(=O)OCC(N)=O)cc12	-1.7	-2	x	x	x	0.75	x	0.3	-30	x
Cc1ccc(S(=O)(=O)N(Cc2ccccc2F)C(=O)N2CCN(C)CC2)cc1	2.7	x	2	6	-0.1	0.64	i	1.3	-6	-30
CC1CN(CCCCOc2ccc(F)cc2)CC(C)O1 (stereo not given)	3.8	-5	-1	6	-2.1	0.71	i	0.0	6	0.5
CC(=O)c1ccc(NC(=O)C2CCCNC2=O)cc1 (stereo not given)	6.3	0	x	x	x	0.68	x	-0.3	3	x
Nc1ccc(N=Nc2ccc(N)cc2)cc1	17	11	-25*	4.0*	7.4*	0.61	i	-1.6	-1	8.7
NC(=O)C1CCN(c2nc(-c3ccccc3F)cs2)CC1	3.4	-8	5	11	16	x	i	-0.4	x	2.6
Cc1c(Cl)cccc1NC(=O)CSc1ncnc2c1cnn2CCc1ccccc1	0.0	3	x	x	x	0.72	x	-3.8	16	x
Clc1ccccc1SCc1nc2ccccc2[nH]1	4.0	-1	x	x	x	0.59	x	-6.8	8	x
Cc1cc(NC(=O)COC(=O)c2cc(S(=O)(=O)N(C)c3ccccc3)ccc2Cl)no1	3.0	-8	-15	-18	0.4	0.66	i	0.3	-5	12
O=C(COC(=O)C12CC3CC(CC(Br)(C3)C1)C2)Nc1ccc2[nH]c(=O)[nH]c2c1	0.6	x	-16	-14	-1.2	0.7	i	-0.2	-5	1.1
O=C(COC(=O)c1ccc(O)cc1O)NNC(=O)c1cccs1	1.5	-3	1	18	-0.4	0.7	i	0.8	x	1.7
COC(=O)c1ccc(NS(=O)(=O)c2ccc(OC)cc2)cc1	0.4	2	1	-8	3.9	0.66	x	-0.3	-10	x
COc1ccc(NC(=S)N2CCC(C(=O)c3ccc(F)cc3)CC2)c(OC)c1	3.4	-1	-8	-3	1.6	0.71	i	-0.2	1	2.0
O=C(c1ccc(COc2ccccc2Cl)o1)N1N=C(C(F)F)CC1(O)C(F)F (stereo not given)	6.4	x	x	x	x	0.74	i	0.5	9	0.1
O=C(Oc1cccc2ccccc12)c1ccco1	0.8	-3	x	x	x	0.69	x	-0.3	-11	x
CCCn1c(N2CCN(Cc3ccc(Cl)cc3)CC2)nc2ccccc21	1.9	10	-60	-80	-22	0.65	x	1.7	42	7.8
COc1ccc(CCn2c(-c3cccc([N+](=O)[O-])c3)nc3nc4ccccc4nc32)cc1	2.2	x	5	3	-1.9	0.72	i	x	x	-24
c1ccn2c(Cc3nnc4ccccn34)nnc2c1	-0.6	2	x	x	x	0.71	x	0.2	-20	x
Cc1sc2ncn(CC(=O)N3CCN(c4ccccn4)CC3)c(=O)c2c1S(=O)(=O)N1CCC(C)CC1	-2.5	-4	5	9	-2.2	0.68	i	-0.1	-16	-2.2
Cc1ccc(N2CC(C(=O)N3CCc4ccccc43)CC2=O)cc1 (stereo not given)	3.8	-6	17	9	2.5	0.74	i	0.8	5	-0.3
CS(=O)(=O)c1ccc(Cl)c(NC(=O)CSc2nc3ccccc3c(=O)n2CCCN2CCOCC2)c1	1.3	-2	-5	0	-2.6	0.68	i	0.1	9	2.8
Cc1cc(SCC(=O)c2ccccc2)n2ncc(-c3ccccc3)c2n1	1.2	11	-51*	-30*	1.7*	0.69	i	-0.2	24	-5.1
COc1ccc(C(=O)N2CCN(C(C)=O)CC2)cc1S(=O)(=O)N1CCOCC1	5.3	-5	16	18	-0.2	0.64	x	-0.4	-3	-1.4
COc1cc(/C=C(/NC(=O)c2ccccc2)C(=O)Nc2ccccc2)c([N+](=O)[O-])cc1OC	2.7	4	x	x	x	0.71	x	-0.2	6	x
CC(=O)N=c1cccc(NC(C)=O)n1O	0.9	-5	x	x	x	0.74	x	0.0	-14	x
O=c1c2ccccc2oc2ccc(NCCCN3CCOCC3)cc12	4.8	-1	-5	-5	-2.5	0.64	i	0.5	19	10
Cc1cc(-c2nn(-c3ccccc3F)cc2CN2CCC(O)CC2)c(C)s1	4.1	-3	1	3	1.1	0.68	i	0.7	-20	0.6
CCOc1ccc(N(CC(=O)NCC2CCCO2)S(=O)(=O)c2ccc(SC)cc2)cc1 (stereo not given)	1.3	-4	-1	1	-8.1	0.67	i	0.2	3	-40
Cc1nc2scc(C)n2c(=O)c1S(=O)(=O)N1CCN(c2ccc(F)cc2)CC1	4.4	-4	10	18	-4.8	0.7	i	-0.5	-5	-2.4
O=C1CSC(c2ccccn2)N1c1cccc(Cl)c1 (stereo not given)	5.2	-4	x	x	x	0.71	x	0.8	-8	x
O=C(NCc1ccccn1)c1ccc2c(=O)n(CCc3ccccc3)c(=O)[nH]c2c1	-16	-8	0	5	-3.6	0.71	i	1.5	-12	-8.2
O=C(/C=C/c1ccco1)NC(=S)NNC(=O)c1ccco1	12	2	-26*	-7.6*	-5.9*	0.65	i	0.9	2	0.9
Cc1ccccc1NC(=O)CCN1CCN(C/C=C/c2ccccc2)CC1	-0.2	-1	x	x	x	0.66	x	0.0	30	x
CSc1nc2ccccc2n1C(=O)NC1CCCCC1	0.7	-6	x	x	x	0.7	x	0.4	-6	x
COc1cccc(-n2nnc3c(=O)n(CC(=O)NC4CCCC4)cnc32)c1	-0.7	-6	11	11	-4.6	0.73	i	0.0	-12	-14
Cc1noc(C(=O)Nc2ccc(F)cc2F)c1Cl	2.3	-2	4	10	1.3	0.69	i	-1.7	1	1.5
CCOC(=O)C1CCN(CC(=O)c2c(C)n(C)c3ccc(OC)cc23)CC1	2.4	2	2	1	-8.2	0.63	i	0.6	11	-4.3
CCOc1ccc(OCCNC(=O)c2oc3ccccc3c2COC)cc1	0.9	2	-6	-16	-1.5	0.7	i	-0.7	x	-2.7

Three entries from above, with each value named.
compound: CS(=O)(=O)c1ccc(Cl)c(NC(=O)CSc2nc3ccccc3c(=O)n2CCCN2CCOCC2)c1
  UCH37 inh: 1.3; Beta cell apopt: -2; Ecoli rRNA inh: -5; Ecoli rRNA inh OD600: 0; Ecoli rRNA inh RFP: -2.6; Ecoli growth: 0.68; FGF22 binding: i; A1 inh: 0.1; T cruzi repl: 9; MLL AF4-AF9 inh: 2.8

compound: Cc1cc(SCC(=O)c2ccccc2)n2ncc(-c3ccccc3)c2n1
  UCH37 inh: 1.2; Beta cell apopt: 11; Ecoli rRNA inh: -51*; Ecoli rRNA inh OD600: -30*; Ecoli rRNA inh RFP: 1.7*; Ecoli growth: 0.69; FGF22 binding: i; A1 inh: -0.2; T cruzi repl: 24; MLL AF4-AF9 inh: -5.1

compound: COc1ccc(C(=O)N2CCN(C(C)=O)CC2)cc1S(=O)(=O)N1CCOCC1
  UCH37 inh: 5.3; Beta cell apopt: -5; Ecoli rRNA inh: 16; Ecoli rRNA inh OD600: 18; Ecoli rRNA inh RFP: -0.2; Ecoli growth: 0.64; FGF22 binding: x; A1 inh: -0.4; T cruzi repl: -3; MLL AF4-AF9 inh: -1.4

(next part)
SMILES	UCH37 inh	Beta cell apopt	Ecoli rRNA inh	Ecoli rRNA inh OD600	Ecoli rRNA inh RFP	Ecoli growth	FGF22 binding	A1 inh	T cruzi repl	MLL AF4-AF9 inh
O=C(c1ccccn1)N1CCN(c2ccc(C(F)(F)F)cn2)CC1	0.0	-1	x	x	x	0.65	x	0.7	-3	x
O=C(C1CCCN(S(=O)(=O)c2ccccc2)C1)N1CCN(c2ncccn2)CC1 (stereo not given)	-2.1	0	x	x	x	0.7	x	0.6	-10	x
N#C/C(=C\c1ccco1)Sc1nc2ccccc2s1	5.3	-7	x	x	x	0.66	x	-0.5	-5	x
COc1cc2c(cc1OC)-c1cc(Nc3ccc(N(C)C)cc3)nc(=O)n1CC2	1.0	15	13	-27	-9.8	0.63	i	0.1	2	1.0
O=C(CNC(=O)/C(=C\c1ccc(Br)cc1)NC(=O)c1ccccc1)OCc1ccccc1	3.2	-11	x	x	x	x	x	0.2	-13	x
COc1ccc(-n2c(=S)[nH]c3cc(C(=O)Nc4cc(C(N)=O)ccc4OC)ccc3c2=O)c(OC)c1	4.4	x	0	6	-0.6	0.69	i	1.8	-10	-0.7
CCOC(=O)c1c(NC(=O)COc2ncnc3ccccc23)sc(C)c1C	-0.7	19	-10	4	-3.3	0.73	i	0.2	12	-2.5
COc1ccc(-c2noc(CCCCC(=O)N3CCN(c4cc(C)ccc4C)CC3)n2)cc1	-0.6	x	-7	-7	13	0.7	i	x	x	-1.8
c1ccc(C2Oc3ccccc3C3CC(c4cccs4)=NN32)cc1 (stereo not given)	-19	9	-18	-26	-15	0.66	i	-1.5	0	-8.3
COC(=O)c1ccccc1NC(=O)N1CCN(C(=O)c2ccco2)CC1	-6.0	-9	x	x	x	0.66	x	0.9	4	x
COc1cccc(-c2cc(C(=O)N/N=C/c3cccc(OC)c3OC)c3ccccc3n2)c1	x	4	5	14	4.8	x	i	0.6	-2	6.4
O=C(CSc1ccccc1)N1CCCC(N2CCN(c3ccccc3)CC2)C1 (stereo not given)	-1.6	-2	-19	-16	19	0.73	i	0.8	-5	3.7
O=C(O)c1cccc(NC(=O)c2ccc(COc3ccc(Cl)cc3)cc2)c1	3.7	x	2	5	0.4	0.69	i	-3.6	-5	-15
CCCN(C(=O)c1cnccn1)c1c(N)n(Cc2ccccc2)c(=O)[nH]c1=O	1.3	6	5	2	-0.8	0.71	i	0.2	x	-5.4
CCCCn1nnnc1SCC(=O)c1ccccc1F	4.9	2	4	-3	-2.0	0.68	x	0.1	6	-3.0
CCN(CCO)C1CC(=O)N(c2ccccc2C)C1=O (stereo not given)	3.9	-10	x	x	x	0.74	x	0.3	-7	x
CC(C)C(NC(=O)CN(c1ccc2c(c1)OCCO2)S(=O)(=O)c1ccccc1)C(C)C	1.1	1	-26	-27	0.3	0.67	i	0.7	26	-0.6
Cc1cc(=O)oc2c(C(=O)/C=C\c3cccs3)c(O)ccc12	2.8	5	x	x	x	0.6	x	0.2	-14	x
CN(C)S(=O)(=O)c1cccc(-c2nnc(SCc3ccc4c(c3)OCCO4)o2)c1	3.3	6	x	x	x	0.71	x	-1.0	11	x
O=C(NC1CCCCC1)c1cc(-c2cccs2)on1	0.1	2	0	3	-2.7	0.65	i	-1.2	-7	-1.4
Cc1cc([N+](=O)[O-])nn1CC(=O)N1CCc2ccccc2C1	3.9	1	x	x	x	0.74	x	0.2	12	x
